Mtb BioA inh – BioA (M. tuberculosis) enzyme inhibition | purified M. tuberculosis BioA enzyme, plate reader | inhibition, % at 9.99 µM | hit rate 0.096% among 360,000 | AID 602481; in the data active = inhibition above about 40%; inconclusive = no clear call, values can overlap the other calls
CCHFV vOTU inh – CCHFV vOTU protease inhibition. Pep-AMC fluorescence. inhibition, % at 11.5 µM. hit rate 0.55% among 370,000; note: 0% = vehicle wells with enzyme and 100% = no enzyme wells
Rv3671c protease – inhibits the M. tuberculosis serine protease Rv3671c | P9WHR9 | inhibition, % at 5.96 µM | hit rate 0.048% among 320,000 | AID 2606; in the data active = inhibition above about 38%;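 note: extracellular domain of Rv3671c used as enzyme; 0% = enzyme with DMSO and 100% = no enzyme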
Target sequence (P9WHR9 whole entry, looked up, the tested form may be a part): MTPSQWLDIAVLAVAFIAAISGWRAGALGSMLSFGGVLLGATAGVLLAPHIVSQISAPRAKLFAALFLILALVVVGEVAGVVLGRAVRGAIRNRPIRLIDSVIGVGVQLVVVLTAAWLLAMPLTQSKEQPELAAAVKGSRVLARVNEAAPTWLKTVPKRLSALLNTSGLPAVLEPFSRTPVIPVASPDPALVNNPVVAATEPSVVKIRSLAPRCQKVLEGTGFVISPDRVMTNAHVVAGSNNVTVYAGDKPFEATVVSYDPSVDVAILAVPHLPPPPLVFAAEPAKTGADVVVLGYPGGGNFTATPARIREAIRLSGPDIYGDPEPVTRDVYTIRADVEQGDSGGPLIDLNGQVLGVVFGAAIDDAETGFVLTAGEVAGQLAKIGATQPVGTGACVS
DUSP3 inh – inhibitors of human VHR1 phosphatase (DUSP3); P51452; recombinant VHR phosphatase, pNPP absorbance; inhibition, % at 13.3 µM; hit rate 0.52% among 290,000; AID 1654; in the data active = inhibition above about 50%; note: some compounds called inactive have numbers as strong as hits
Target sequence (P51452 whole entry, looked up): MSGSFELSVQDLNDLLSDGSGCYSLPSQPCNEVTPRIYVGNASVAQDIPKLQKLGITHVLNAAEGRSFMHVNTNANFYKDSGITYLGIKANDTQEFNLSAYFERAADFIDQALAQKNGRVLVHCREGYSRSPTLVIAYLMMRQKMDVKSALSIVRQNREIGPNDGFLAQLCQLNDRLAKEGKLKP
GDH-TPI inh – counter-screen for M. tuberculosis FBA inhibitors: GDH-TPI coupled enzymes. GDH-TPI coupled enzyme counterscreen, NADH absorbance. inhibition, % at 4.8 µM. hit rate 1.2% among 360,000;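 note: 0% = DMSO wells and 100% = wells lacking the enzyme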
FadD28 binding – M. tuberculosis FadD28 bisubstrate binding inhibition; hit rate 0.22% among 360,000; AID 588549; inhibition, % at 12.5 µM; FadD28 bisubstrate probe binding, fluorescence polarization; in the data active = inhibition above about 8.5%, passing the limit was not always enough; inconclusive = no clear call, values can overlap the other calls
UGM FP inh – Mtb UDP-galactopyranose mutase inhibition; purified UGM, fluorescence polarization probe displacement; P9WIQ1; inhibition, % at 10 µM; AID 504406; hit rate 0.06% among 320,000; in the data active = inhibition above about 10%, passing the limit was not always enough; inconclusive = no clear call, values can overlap the other calls
Target sequence (P9WIQ1 whole entry, looked up): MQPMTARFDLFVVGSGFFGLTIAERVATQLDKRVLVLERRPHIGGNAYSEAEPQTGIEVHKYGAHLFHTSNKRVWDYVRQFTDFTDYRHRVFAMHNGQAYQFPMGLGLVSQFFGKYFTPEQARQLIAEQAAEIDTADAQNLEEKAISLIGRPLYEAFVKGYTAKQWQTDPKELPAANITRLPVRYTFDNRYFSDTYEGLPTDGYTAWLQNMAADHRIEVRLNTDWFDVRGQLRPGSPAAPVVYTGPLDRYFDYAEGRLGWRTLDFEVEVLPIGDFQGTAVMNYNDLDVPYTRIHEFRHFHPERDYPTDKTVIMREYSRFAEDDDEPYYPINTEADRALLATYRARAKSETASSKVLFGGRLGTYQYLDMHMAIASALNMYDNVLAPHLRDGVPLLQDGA
BoNT F protease – BoNT F light chain protease inhibition; inhibition, % at 10 µM; hit rate 0.22% among 360,000; Multiplex microsphere protease cleavage assay, flow cytometry; in the data active = inhibition above about 35%, passing the limit was not always enough; inconclusive = no clear call, values can overlap the other calls; note: plate controls were buffer without enzyme for full effect and enzyme alone for no effect
* marks the source's active call; other numbers are inactive results; ? = inconclusive; . = no result given. Cut-off read from the data, not from the text of the source, unless noted: active = inhibition above about 30%; inactive = the rest. The list is partial; rates above refer to the full screens.

The first 7 compounds, to show the layout:
SMILES	Mtb BioA inh	CCHFV vOTU inh	Rv3671c protease	DUSP3 inh	GDH-TPI inh	FadD28 binding	UGM FP inh	BoNT F protease
O=C(O)COc1ccc(/C=C/c2nc3ccc([N+](=O)[O-])cc3s2)cc1	0.1	-10	6	14	3	-2.5	-1.6	4
Fc1ccc(N2CCN(Cc3ccccn3)CC2)cc1	.	-2	4	9	-3	-3.8	1.1	-2
COc1cc(CN2CCc3ccccc3C2)ccc1O	.	-13	-3	17	-20	-3.6	2.5	-5
CCNC(=S)N(CCN(CC)CC)Cc1cc2cc3c(cc2[nH]c1=O)OCO3	-0.7	-24	-9	26	41*	-0.1	-0.6	?
O=C(Cn1cncn1)NCc1ccccc1Br	-4.6	-1	-2	5	8	-3.0	0.6	-2
CNCC[C@H](Oc1ccc(C(F)(F)F)cc1)c1ccccc1	0.3	4	8	.	-9	-6.7	0.6	-16
CS(=O)(=O)n1nc(-c2ccccc2)nc1N	.	3	-6	12	2	-0.4	2.6	-8

All compounds of this part, repeating the preview:
SMILES	Mtb BioA inh	CCHFV vOTU inh	Rv3671c protease	DUSP3 inh	GDH-TPI inh	FadD28 binding	UGM FP inh	BoNT F protease
O=C(O)COc1ccc(/C=C/c2nc3ccc([N+](=O)[O-])cc3s2)cc1	0.1	-10	6	14	3	-2.5	-1.6	4
Fc1ccc(N2CCN(Cc3ccccn3)CC2)cc1	.	-2	4	9	-3	-3.8	1.1	-2
COc1cc(CN2CCc3ccccc3C2)ccc1O	.	-13	-3	17	-20	-3.6	2.5	-5
CCNC(=S)N(CCN(CC)CC)Cc1cc2cc3c(cc2[nH]c1=O)OCO3	-0.7	-24	-9	26	41*	-0.1	-0.6	?
O=C(Cn1cncn1)NCc1ccccc1Br	-4.6	-1	-2	5	8	-3.0	0.6	-2
CNCC[C@H](Oc1ccc(C(F)(F)F)cc1)c1ccccc1	0.3	4	8	.	-9	-6.7	0.6	-16
CS(=O)(=O)n1nc(-c2ccccc2)nc1N	.	3	-6	12	2	-0.4	2.6	-8
Cn1c(SCC(=O)Nc2ccc(C(=O)O)cc2)nc2scc(-c3ccccc3Cl)c2c1=O	6.2	-10	-9	.	6	-5.5	0.5	2
O=C(CCCn1c(=S)[nH]c2cc3c(cc2c1=O)OCO3)N1CCN(c2ccc(Cl)cc2)CC1	.	0	-6	23	2	-4.9	2.1	1
Cn1nc(C(=O)NNC(=O)c2ccc(Cl)cc2)ccc1=O	-1.6	13	-2	.	12	0.2	0.6	4
COc1ccccc1CN1C[C@@H]2C[C@@H](c3ccc(C)c(C)c3)N3CCC[C@@]23C1=O	.	-20	1	12	2	0.5	1.2	6
CN(C)C(CNc1nnnn1-c1ccccc1)c1ccco1 (stereo not drawn)	.	-2	1	13	-8	-3.1	1.9	-8
NC(=O)CC(NC(=O)Cc1ccc(Br)cc1)c1ccc(NCCc2ccc(Cl)cc2)c([N+](=O)[O-])c1 (stereo not drawn)	-0.2	1	.	7	14	0.8	.	-9
O=C1OC(/C=C/c2ccccc2)=NC/1=C/C=C/c1ccccc1	-0.2	-8	-4	-11	32*	-0.8	2.2	8
O=C1C2C3C=CC(CC3)C2C(=O)N1c1cccc(C(F)(F)F)c1 (stereo not drawn)	-1.5	-3	-1	-5	2	-1.9	0.9	-7
CCCCCCCC[n+]1c(C)n(-c2ccccc2)c2ccc(NC(C)=O)cc21	.	2	0	22	-3	-5.7	2.4	-18
COc1ccc(OCC(=O)NNC(=O)c2ccccn2)cc1	.	-9	-10	34	-8	-3.7	-0.6	-2
O=S(=O)(c1ccccc1)N1CCN(S(=O)(=O)c2ccccc2)c2ccccc21	-2.1	-7	.	.	9	-1.2	.	1
COCC(C)n1c(C)cc(C(=O)CSc2ncccn2)c1C (stereo not drawn)	.	-14	-11	18	0	-1.0	5.5	-3
N#Cc1cc2c(nc1SCC(=O)O)CCCC2	0.0	-4	2	16	-3	-2.5	0.3	0
CCN1CCCC1CNC(=O)c1ccc2c(c1)NC(=O)/C(=C\c1ccc(OC)c(OC)c1)S2 (stereo not drawn)	0.0	-8	-12	-9	31*	-1.5	0.5	-14
CCOC(=O)C1CCCN(c2ccc([N+](=O)[O-])c3nonc23)C1 (stereo not drawn)	.	13	.	-3	12	47*	.	21
O=C(Cn1cccc1)NCc1cccs1	-0.9	-6	-6	15	-7	-1.4	-0.7	9
COC(=O)c1[nH]c2ccc(C)cc2c1NC(=O)CN1CCN(Cc2ccccc2)CC1	7.1	-6	4	7	13	-1.3	0.1	-28
Cc1cccc(NC(=O)c2cc(-c3ccc(C)c(C)c3O)n[nH]2)c1	-0.6	14	.	89	5	0.0	-0.2	1
COC(=O)c1ccc(CNC(=O)CSc2nc3sc(C)c(C)c3c(=O)n2C)o1	25	3	3	4	14	-1.2	-1.9	-2
O=C(CSc1nc(-c2cccs2)cc(C(F)(F)F)n1)NCCCn1ccnc1	8.3	1	2	-8	9	-1.2	1.9	-9
CCN(CC(=O)Nc1ccc2c(c1)OCO2)S(=O)(=O)c1ccccc1	.	7	-2	-1	-1	0.9	2.3	-14
COc1ccc(/C=C2\N=C(SC)SC2=O)cc1OC	0.6	2	0	13	4	-4.3	0.3	1
CC(=O)NCCOc1nc(N2CCCCC2)nc(N2CCCCC2)n1	-0.5	1	-7	26	-2	-2.3	1.4	-1
CC(/C=N/NC(=O)c1n[nH]c2c1CCC2)=C\c1ccccc1	-0.1	16	-6	37	31*	-2.3	-0.1	3
COc1ccc(OC)c(S(=O)(=O)NC(C)CCc2ccccc2)c1 (stereo not drawn)	-1.0	-9	-1	1	0	-4.4	-3.3	12
O=C(c1ccccn1)N1CC=C(c2ccccc2)CC1	.	2	.	20	-4	-4.0	.	-2
Cc1cccc(N2CC(C(=O)NCc3ccco3)CC2=O)c1C (stereo not drawn)	-0.5	4	-4	.	-5	-2.3	4.0	-1
COc1ccc(Cl)cc1NC(=O)C1CCCN(c2cc(C)nc3ncnn23)C1 (stereo not drawn)	0.4	2	3	14	0	-3.6	5.9	-3
CC(/C=C/c1ccc2c(c1)OCO2)=N/NC(=O)COc1ccc(C)cc1	.	-12	-5	5	5	-2.9	-2.5	-5
CC(C)CC(=O)NC1(C(F)(F)F)C(=O)N(CC(C)C)C2=C1C(=O)CC(C)(C)C2 (stereo not drawn)	-0.4	-5	2	-13	9	-3.0	1.3	-5
CC(=O)Nc1ccc(S(=O)(=O)NCCN2CCOCC2)cc1	0.3	4	-3	29	-3	-1.8	4.0	7
CCN=C1S/C(=C\c2ccc(N3CCOCC3)cc2C)C(=O)N1CC	.	-9	9	2	10	0.4	0.3	0
CCC1CCCCN1C(=O)Cn1nc([N+](=O)[O-])c(Cl)c1C (stereo not drawn)	.	-11	-2	13	-1	0.0	-1.6	-9
COc1ccc(C2NC3=C(CCC3)C3(C#N)C(OC)(OC)N=C(N)C23C#N)cc1 (stereo not drawn)	2.1	.	1	16	8	2.5	3.0	-28
Cc1cc(C)nc(NS(=O)(=O)c2ccc(N3C(=O)C4C5C=CC(C5)C4C3=O)cc2)n1 (stereo not drawn)	5.6	-9	5	-4	-3	-1.3	-0.1	17
CC(C)OCCCn1c(=S)[nH]c2ccc(N3CCOCC3)cc2c1=O	2.5	-10	0	-17	1	-1.3	-1.9	-4
O=C(NCc1ccncc1)C(=O)NCC1OCCN1S(=O)(=O)c1ccc(F)cc1 (stereo not drawn)	-1.0	-4	-4	5	-3	-3.4	-3.2	2
CC(NC(=O)COC(=O)c1ccccc1SCC(=O)N1CCCC1)c1ccccc1 (stereo not drawn)	.	7	-3	.	12	0.2	0.5	.
CC1C(c2ccccc2)N(C)C(c2ccccc2)C(C)C1(O)C#Cc1ccccc1 (stereo not drawn)	-0.9	13	-15	26	11	-2.7	-4.7	-1
CCOc1ccc(S(=O)(=O)Nc2ccc(C(=O)N3CCC3)cc2)cc1	.	-7	-4	.	-3	-3.2	0.5	-25
CC(=O)NCC(=O)N1CCCC(C(=O)c2ccc3c4c(cccc24)CC3)C1 (stereo not drawn)	.	-25	-5	8	10	-1.1	2.1	-2
Cc1noc(C(=O)Nc2cccc(O)c2)c1Cl	-0.5	3	0	-12	11	-0.4	0.3	-2
CC1C(=O)N2CCCc3cc(S(=O)(=O)NCc4ccccc4Cl)cc1c32 (stereo not drawn)	-0.3	3	-3	-25	2	-3.1	-2.5	2
Cc1ccc(S(=O)(=O)CCC(=O)Nc2cccc(S(=O)(=O)N3CCCCCC3)c2)cc1	2.1	13	0	.	8	2.9	-0.8	-9
CC(=O)c1sc(NC(=O)C2CCN(C(=O)c3ccc(F)cc3)CC2)nc1-c1ccccc1	0.6	-1	-5	.	14	-4.1	2.2	10
Cc1ccccc1NC(=O)CCC(=O)N/N=C/c1cccnc1	-1.3	16	-6	14	1	-1.9	1.4	0
FC(F)(F)Oc1ccc(-c2cn3cccnc3n2)cc1	.	-219	-1	-11	9	-4.2	3.3	?
O=C(NC1CCCCC1)N1CCN(c2ccccc2Cl)CC1	-0.9	19	7	32	-1	-0.5	1.2	14
CCCCN1Cc2c(nc3cc(-c4ccccc4)[nH]n3c2=O)C1=O	.	-72	4	23	8	1.3	0.2	9
FC(F)(F)c1cc(-c2ccccc2)nc(N2CCOCC2)n1	-0.3	10	4	28	-2	-2.4	-5.6	-4
CCOC(=O)N1CCN(C(=O)C2CCN(S(=O)(=O)N3CCC4(CC3)OCCO4)CC2)CC1	2.1	-10	2	23	8	0.4	-0.2	10
CCCC1CC(C(=O)NC(C(C)Cl)C2OC(SC)C(O)C(O)C2O)N(C)C1 (stereo not drawn)	-1.4	0	-2	-2	-3	-1.5	2.5	-3
CC(C)Sc1nc(O)c(Cc2ccccc2)c(=O)[nH]1	-6.7	0	2	23	8	-0.7	4.9	4
(more compounds)
SMILES	Mtb BioA inh	CCHFV vOTU inh	Rv3671c protease	DUSP3 inh	GDH-TPI inh	FadD28 binding	UGM FP inh	BoNT F protease
O=C(CSc1n[nH]c(-c2ccccc2O)n1)N1CCOCC1	.	-1	5	46	5	0.2	1.7	1
Cc1ccc(-c2cc(C(=O)N3N=C(C(F)F)CC3(O)C(F)F)c3ccccc3n2)cc1C (stereo not drawn)	0.5	-1	-43	6	11	-5.7	-1.1	-12
Cc1cc(C(=O)COC(=O)c2ccc(O)cc2)c(C)n1Cc1ccco1	1.5	4	-14	-5	1	-3.8	-0.2	-10
C=CCOc1ccc(C2NC(=S)NC(C)=C2C(=O)c2ccccc2)cc1OC (stereo not drawn)	.	-7	-7	5	24	-1.8	.	-4
COc1ccc(NC(=O)CN(C)C(=O)c2ccc(S(=O)(=O)Nc3ccccc3F)cc2)cc1	4.4	2	-2	.	1	-0.6	-2.9	-15
O=C(COC(=O)CCCN1C(=O)c2cccc3cccc(c23)C1=O)NC1CCS(=O)(=O)C1 (stereo not drawn)	-0.7	-21	.	.	12	-0.4	.	7
Cc1ccc(N(Cc2ccccc2)C(=O)c2cc(S(=O)(=O)N3CCOCC3)ccc2Cl)cc1	-1.4	9	7	.	-9	-14	.	-6
CCOc1cc(C2C(C(=O)OC(C)C)=C(C)N=C3SCCC(=O)N32)ccc1OC(C)=O (stereo not drawn)	0.8	19	-11	3	9	?	2.7	-8
COC(=O)c1ccccc1NC(=S)NC(=O)COc1ccc(C)cc1	-0.3	4	3	.	1	-1.0	-0.7	1
CS(=O)(=O)Nc1nc2n(n1)C(c1ccccc1)CC(c1ccccc1)N2 (stereo not drawn)	2.4	-4	1	8	-1	-2.5	-1.4	-9
O=C(O)C(Cc1cc(Cl)ccc1Cl)Sc1nc2ccccc2[nH]1 (stereo not drawn)	0.0	-10	-10	1	9	-2.3	1.8	-3
COc1ccc(/C(C)=N/NC(=O)c2ccncc2)cc1	-2.7	6	-1	7	5	-4.5	-0.5	-16
CCN(C(=O)CSc1nnc(Cc2cccc3ccccc23)n1N)C1CCS(=O)(=O)C1 (stereo not drawn)	.	6	4	21	4	-0.6	-1.6	-4
COCCCn1c(-c2cccs2)nc2nc3ccccc3nc21	-0.7	-296	3	8	5	-0.1	-2.7	-10
CCN(CC)S(=O)(=O)c1cccc(C(=O)Nc2ccc(Cl)cn2)c1	0.2	-9	4	36	6	-2.0	2.0	-1
CCSc1ncccc1-c1nc2ccccc2[nH]1	.	-9	-11	0	6	-5.2	-0.5	6
COc1ccc(Cl)cc1NC(=O)c1cc(S(=O)(=O)N2CCCC2)cn1C	-0.2	-1	-7	-6	14	-2.7	-0.9	-2

Screens: PubChem BioAssay, several laboratories
